Screens: PubChem, National Center for Advancing Translational Sciences (NCATS)
nsP2pro primary – Primary qHTS for inhibitors of NSP2Pro chikungunya virus (CHIKV) | Polyprotein P1234 (Chikungunya virus (strain S27-African prototype)), Q8JUX6 | FRET peptide cleavage, nsP2pro, fluorescence 1 h | Potency, µM (highest dose often 24.9 µM), for inactives: top-dose activity change, negative = inhibition, actives largely listed as inhibitors | actives 1.1% (n = 31,000); active means well fitted inhibition curve with a large enough effect; inconclusive means small, poorly fitted or top-dose-only effect; inactive means no such curve, though single readings can be large or run the other way; note: nearly all actives have a fitted effect of over 60% in size; a reference inhibitor and vehicle were the controls
Target sequence (Q8JUX6 whole entry, looked up): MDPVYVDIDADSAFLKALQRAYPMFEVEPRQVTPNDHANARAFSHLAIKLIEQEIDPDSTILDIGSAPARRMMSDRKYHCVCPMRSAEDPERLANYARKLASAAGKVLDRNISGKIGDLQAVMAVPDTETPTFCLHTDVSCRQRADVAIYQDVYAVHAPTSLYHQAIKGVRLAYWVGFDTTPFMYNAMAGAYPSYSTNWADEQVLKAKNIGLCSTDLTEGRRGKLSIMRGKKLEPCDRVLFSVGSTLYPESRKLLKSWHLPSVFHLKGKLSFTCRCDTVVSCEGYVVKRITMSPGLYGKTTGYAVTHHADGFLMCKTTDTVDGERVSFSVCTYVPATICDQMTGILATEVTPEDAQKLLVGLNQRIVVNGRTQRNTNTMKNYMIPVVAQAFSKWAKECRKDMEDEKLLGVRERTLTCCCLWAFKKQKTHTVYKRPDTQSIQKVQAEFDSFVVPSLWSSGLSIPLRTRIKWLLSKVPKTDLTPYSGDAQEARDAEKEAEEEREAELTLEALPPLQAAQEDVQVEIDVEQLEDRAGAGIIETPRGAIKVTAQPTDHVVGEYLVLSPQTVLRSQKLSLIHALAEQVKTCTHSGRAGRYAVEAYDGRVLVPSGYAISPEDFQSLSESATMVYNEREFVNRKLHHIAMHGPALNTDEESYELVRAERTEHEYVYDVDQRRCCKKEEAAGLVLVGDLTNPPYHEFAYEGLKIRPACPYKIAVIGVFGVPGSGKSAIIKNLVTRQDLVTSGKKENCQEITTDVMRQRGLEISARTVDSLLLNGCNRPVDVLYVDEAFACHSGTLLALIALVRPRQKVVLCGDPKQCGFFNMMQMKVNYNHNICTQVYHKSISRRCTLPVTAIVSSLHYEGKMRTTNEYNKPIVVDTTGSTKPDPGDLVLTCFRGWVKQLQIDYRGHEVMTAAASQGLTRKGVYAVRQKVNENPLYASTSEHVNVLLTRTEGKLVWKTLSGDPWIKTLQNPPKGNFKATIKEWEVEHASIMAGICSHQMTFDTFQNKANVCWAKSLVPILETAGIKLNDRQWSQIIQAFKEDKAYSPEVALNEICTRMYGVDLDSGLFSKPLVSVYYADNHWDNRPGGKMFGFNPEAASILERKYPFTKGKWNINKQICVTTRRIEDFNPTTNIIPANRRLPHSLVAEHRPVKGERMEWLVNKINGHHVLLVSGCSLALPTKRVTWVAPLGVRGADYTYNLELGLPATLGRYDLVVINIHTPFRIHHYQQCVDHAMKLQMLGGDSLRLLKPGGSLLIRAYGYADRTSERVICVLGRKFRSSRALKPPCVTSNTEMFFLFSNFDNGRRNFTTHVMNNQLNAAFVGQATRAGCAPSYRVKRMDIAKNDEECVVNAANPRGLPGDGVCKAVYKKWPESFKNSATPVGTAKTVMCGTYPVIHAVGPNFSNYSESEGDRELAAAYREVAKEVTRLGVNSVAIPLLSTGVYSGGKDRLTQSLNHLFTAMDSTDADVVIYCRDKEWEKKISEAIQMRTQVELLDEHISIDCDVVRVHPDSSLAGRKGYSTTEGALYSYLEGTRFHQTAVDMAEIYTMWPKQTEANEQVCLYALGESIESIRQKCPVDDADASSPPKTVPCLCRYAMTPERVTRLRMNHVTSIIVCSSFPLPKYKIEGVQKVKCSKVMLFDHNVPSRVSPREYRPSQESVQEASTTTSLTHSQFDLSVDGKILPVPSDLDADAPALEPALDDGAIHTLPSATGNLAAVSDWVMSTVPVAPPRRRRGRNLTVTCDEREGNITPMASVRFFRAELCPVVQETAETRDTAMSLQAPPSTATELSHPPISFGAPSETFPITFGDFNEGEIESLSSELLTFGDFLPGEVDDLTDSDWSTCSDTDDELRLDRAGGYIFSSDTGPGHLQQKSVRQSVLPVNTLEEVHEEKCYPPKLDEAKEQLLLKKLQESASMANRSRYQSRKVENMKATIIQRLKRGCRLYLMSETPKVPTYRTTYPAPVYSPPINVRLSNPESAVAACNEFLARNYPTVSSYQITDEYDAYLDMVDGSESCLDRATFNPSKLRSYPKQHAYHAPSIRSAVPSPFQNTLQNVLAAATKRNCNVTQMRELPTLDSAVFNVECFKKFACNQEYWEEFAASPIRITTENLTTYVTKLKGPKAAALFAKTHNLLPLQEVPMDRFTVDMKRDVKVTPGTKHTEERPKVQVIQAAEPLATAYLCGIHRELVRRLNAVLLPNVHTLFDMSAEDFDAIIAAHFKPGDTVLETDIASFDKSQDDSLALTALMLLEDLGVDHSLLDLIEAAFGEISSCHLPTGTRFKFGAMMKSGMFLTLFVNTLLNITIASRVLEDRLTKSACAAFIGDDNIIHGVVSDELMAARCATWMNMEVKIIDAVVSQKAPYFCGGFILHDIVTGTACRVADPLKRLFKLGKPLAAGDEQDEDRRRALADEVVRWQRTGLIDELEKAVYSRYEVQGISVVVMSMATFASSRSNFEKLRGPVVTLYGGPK
Starred values were filed as active, the others as inactive; i = inactive; ? = inconclusive; [ ] = another dose, or the depositor's remark. % is set by controls: 0 for no effect and ±100 for the full control effect; potency is the fitted concentration of half-maximal effect. An excerpt; the hit share may differ from the screen's.

SMILES	nsP2pro primary
COc1ccc(NC(=O)N2CCc3c([nH]c4ccc(OC)cc34)C2c2ccc(OC)cc2)cc1 (stereo not drawn)	-13%
CCc1ccccc1NC(=O)Nc1cc(C(=O)NCc2ccccc2OC)ccc1N1CCCC1	-16%
Cc1cccc(-c2ccc(=O)n(CC(=O)NCCc3ccccc3)n2)c1	0%
COc1ccc(C2CC(=O)c3cc(-c4nc(-c5ccc(Cl)cc5)cs4)c(=O)[nH]c3C2)cc1 (stereo not drawn)	-20%
C=C1CC[C@H]2[C@@](C)(CCC(O)[C@@]2(C)CO)[C@@H]1CCC1=CCOC1=O (stereo partly drawn)	3%
COc1ccc(C(=O)NC[C@@H]2CC[C@H]3C[C@@H]2C3(C)C)cc1	2%[39.2 µM]
CCOC(=O)c1ccc(N2C(=O)c3n[nH]c(C)c3C2c2ccc(O)c(OC)c2)cc1 (stereo not drawn)	-15%
CCOc1ccc(CCNC(=O)c2ccc(CS(=O)(=O)Cc3ccccc3Cl)o2)cc1OCC	-19%
Cc1ccc(C(=O)Nc2ccccc2C(=O)OCc2cc(=O)n3nc(C(C)C)sc3n2)cc1	-17%
Cc1cc2c(cc1S(=O)(=O)N(CCO)Cc1ccccc1)OCC(=O)N2	-8%
COc1ccc(-c2c(C)nn3c(NCCN4CCOCC4)cc(C)nc23)cc1OC	11%
CC(C)(Oc1ccc(Br)cc1)C(=O)Nc1cc(-c2nc3ccccc3[nH]2)ccc1Cl	11%
CCc1ccc(-n2c(=O)c3ccccc3n(Cc3ccccc3C#N)c2=O)cc1	-16%
CC1=C(C(=O)Nc2ccccc2)C(c2ccncc2)n2nc(SCc3ccccc3)nc2N1 (stereo not drawn)	-26%
COc1cc2c(cc1NC(=O)C(C)Oc1ccc(Cl)cc1Cl)oc1ccccc12 (stereo not drawn)	-11%
COCCN1Cc2[nH]nc(-c3ccsc3)c2CC1=O	i
COc1ccc(-c2cc(N3CCC(NC(=O)c4ccncc4)C3)n[nH]2)cc1 (stereo not drawn)	i
COc1cc(/C=C/C(=O)O)ccc1O[C@@H]1O[C@H](CO)[C@@H](O)[C@H](O)[C@H]1O[C@@H]1OC[C@](O)(CO)[C@H]1O	?
CCN(CC)CCCNC(=O)CSc1nc2nc(C)c(Cc3ccccc3C)c(C)n2n1	-15%
CCCNC(=O)C1COC2(CCN(C(=O)Cc3ccccc3)CC2)N1C(=O)c1cccc(C)c1 (stereo not drawn)	i
Cc1ccc(NC(=O)CNC(=O)Cn2c(C)cc3ccccc3c2=O)cc1F	-4%
CN[C@@H]1C[C@H]2O[C@@](C)([C@@H]1OC)n1c3ccccc3c3c4c(c5c6ccccc6n2c5c31)C(=O)NC4	?
CCOc1ccc(CCNC(=O)Cn2c(-c3cccs3)cc3ccccc32)cc1	-11%
CCOC(=O)C1CCN(C(=O)C2(NC(=O)Nc3ccccc3Cl)CCCCC2)CC1	i
Cc1cc(O)c2ccccc2c1O	?
CCCCCC(=O)N[C@H]1C[C@@H](Cc2cc(CN3CCOCC3)on2)C1(C)C	-8%[39.2 µM]
COc1ccc(NC(=O)CCc2nnc3n(CC(C)C)c(=O)c4ccccc4n23)cc1	-15%
CC(=O)OC(C)C(C)(O)C(=O)O[C@@H]1CC[C@]2(C)CC(=O)C(=C(C)C)C[C@H]2[C@]1(C)OC(C)=O (stereo partly drawn)	-3%[10 µM]
COc1cc(/C=C/C(=O)OC2CC3CCC2(C)C3(C)C)ccc1O (stereo not drawn)	2%
Cc1ccc(Cl)cc1N(C)C(=O)C1CCCN(c2ncnc3onc(-c4ccc(F)cc4)c23)C1 (stereo not drawn)	-6%
CCOC(=O)[C@H](CCc1ccccc1)N[C@H](C)C(=O)N1C2CCCCC2C[C@H]1C(=O)O (stereo partly drawn)	-9%
CCCN(CCC)S(=O)(=O)c1ccc(C(=O)N2CCn3c4c(c5cc(C)ccc53)CCCC42)cc1 (stereo not drawn)	-12%
Cc1cc(C(=O)N2CCC3(CC2)CC(O)CCO3)c(C)o1 (stereo not drawn)	-11%
CC(C)C[C@H](CC(=O)NO)C(=O)N[C@@H](Cc1ccc2ccccc2c1)C(=O)N[C@@H](C)C(=O)NCCN	-1%
Fc1ccccc1CN1CCCC2(CCN(c3cnccn3)C2)C1 (stereo not drawn)	i
C=C1CC[C@H]2[C@@H](/C=C(\C)C(=O)[C@@]3(OC(C)=O)C[C@H](C)[C@H](OC(C)=O)[C@@H]3[C@H]1OC(C)=O)C2(C)C	?
CCCS(=O)(=O)N1CCCC(Cn2c(C)nc3cccnc32)C1 (stereo not drawn)	i
O=C1NCCOCCN(C(=O)NC2CCCCC2)[C@@H]2CCCC[C@H]12	-2%
COCC1CN(Cc2sccc2C)CC12CCNCC2 (stereo not drawn)	8%
CC(=O)c1c(C)[nH]c(C(=O)Nc2ccc(OCCCN(C)C)c(S(=O)(=O)Nc3ccc(Br)cc3)c2)c1C	-9%
COc1ccc(-n2nc(C(=O)N3CCN(c4cccc(C)c4)C(C)C3)c3c4ccccc4n(C)c3c2=O)cc1 (stereo not drawn)	-24%
Cc1cc2c(s1)c1cnn(Cc3c(F)c(F)c(C(F)(F)F)c(F)c3F)c(=O)c1n2C	-2%
COc1ccc(C(=O)N[C@H]2CO[C@H]3[C@@H]2OC[C@@H]3Nc2nccc(-c3cccs3)n2)cc1	i
CC1=CCC2C(C)(CO)CCCC2(CO)C1CO (stereo not drawn)	55%
Cc1nnc(N2CCC(C(=O)N3CCCCC3)CC2)c2nn(-c3ccc(Cl)cc3)c(C)c12	-5%
CC(=O)Nn1c(C)nc2sc3c(c2c1=O)CCNC3	-9%
O=C(O)c1ccc(O)c2ncc(N3CCCN(CCc4cccc5ccccc45)CC3)cc12	115%[activator]
O=C1c2ccccc2NC(c2ccc(-c3ccc(C(F)(F)F)cc3)o2)N1O (stereo not drawn)	10µM*
COC(=O)[C@H]1[C@H]2C[C@@H]3c4[nH]c5ccccc5c4CCN3C[C@H]2C[C@@H](OC(=O)c2cc(OC)c(OC)c(OC)c2)[C@@H]1OC	?
CCCCNC(=O)CSc1nc2cc3c(cc2c(=O)n1CCCCCC(=O)NCc1ccc2c(c1)OCO2)OCO3	-17%
COc1ccc(C(=O)Nc2ccc3c(c2)CN(CCc2ccccc2)C(=O)C(C)O3)cc1OC (stereo not drawn)	i
O=C(Nc1ccc(S(=O)(=O)N2CCCCC2c2cccnc2)cc1)c1ccc(Br)cc1 (stereo not drawn)	-6%
COc1ccc(C2Nc3ccccc3C(=O)N2Cc2ccccn2)cc1COc1c(C)cccc1C (stereo not drawn)	i
COc1ccc(-c2cc(C(=O)NCc3cccnc3)c3c(c2)N(C)CCO3)cc1OC	i
CCOC(=O)c1noc2ncnc(N(CCC(=O)OC)c3ccccc3)c12	-14%
CN[C@@H]1[C@@H](O)[C@@H](O[C@@H]2[C@@H](O)[C@H](O[C@H]3O[C@H](CN)[C@@H](O)[C@H](O)[C@H]3O)[C@@H](N)C[C@H]2NC(=O)[C@@H](O)CN)OC[C@]1(C)O	-1%
COc1cccc2sc(=NC(=O)c3ccc(S(=O)(=O)N4CCCCC4)cc3)n(C)c12	-22%
Cc1cc(C)c(NC(=O)Cc2csc(C)n2)c(Cl)c1	3%
Cc1cc(-c2ccc(S(=O)(=O)Nc3ccc(Cl)cc3)cc2)on1	1%
CCOC(=O)c1ccc(NC(=O)c2oc3ccc4c(c3c2C)C(=O)CC(C)(CC)O4)cc1 (stereo not drawn)	-28%
The results go on:
SMILES	nsP2pro primary
COc1cccc(Nc2ccc(N3CCN(C(C)=O)CC3)cc2)c1OC	i
CCOC(=O)c1cc(-c2ccc(F)cc2)n(CC(=O)NC2CCCCCC2)c1C	-22%
O=C(O)C[C@@H]1CC[C@H](NC(=O)Cc2cccs2)B(O)O1	-9%
O=S(=O)(N[C@H]1CO[C@H]2[C@@H]1OC[C@@H]2Nc1nccc(-c2cccs2)n1)c1cccs1	-14%
COc1ccccc1NC(=O)c1sc2nc(C)c(C(=O)Nc3ccc(C)cc3C)c(-c3ccccc3Cl)c2c1N	-13%
CCOC(=O)c1sc2ccccc2c1S(=O)(=O)Nc1ccc(N(C)C)cc1	-25%
COC(=O)c1c(NC(C)=O)c2cc(NC3CCCC(C)(C)C3)cnc2n1CC1CCCO1 (stereo not drawn)	-4%
CCC(C)Nc1nc2c(c(=O)[nH]c(=O)n2C)n1Cc1ccc(F)cc1 (stereo not drawn)	-5%
Cc1nnc(C(=O)NC(C)(C)c2nc(C(=O)NCc3ccc(F)cc3)c(O)c(=O)n2C)o1	?
CCc1ccc(NC(=O)c2cnn3c(C)cc(-c4ccccc4)nc23)cc1	1%
O=C(O)c1ccc2c(c1)C(=O)N([C@H](Cc1ccc(F)cc1)C(=O)O)C2=O	2%
O=C(CNC(=O)c1cccc2ccccc12)OC(C(=O)Nc1cc(C(F)(F)F)ccc1Cl)c1ccccc1 (stereo not drawn)	-1%
COc1ncccc1-c1cc2c(ccn2CC2CCN([S+](C)(=O)[O-])CC2)c(N2CCOCC2)n1	-11%
CCOCCn1c(C2CCN(CCc3ccc(C(C)(C)C(=O)O)cc3)CC2)nc2ccccc21	-3%
NCC(=O)Nc1ccc(-n2nc(C(F)(F)F)cc2-c2ccc3c(ccc4ccccc43)c2)cc1	325%[activator]
CCc1cccc(C)c1Nc1c(-c2ccc(SC)cc2)nc2sccn12	?
CCn1c(CN2CCC(C)CC2)nc2cc(NC(=O)COc3ccc([N+](=O)[O-])cc3)ccc21	-13%
CC(=O)Nc1sc2c(c1-c1csc3ccccc13)CCNC2	-11%
COc1ccc(Cn2c(CNC(=O)c3ccc(N(C)C)cc3)nc3cccnc32)cc1	-29%
CCC(=O)N1c2ccccc2CC1C(=O)NCCN1CCN(c2ccccc2F)CC1 (stereo not drawn)	-9%
C[S+](=O)([O-])c1ccc(-c2cnc3n[nH]c(-c4ccccc4)c3n2)cc1	i
COc1nccc(-c2c(-c3ccc(F)cc3)ncn2C2CCNCC2)n1	17%
CCn1ccc(C(=O)N2CCC(C3CCN(C(C)=O)CC3)C2)n1 (stereo not drawn)	3%
COCC(=O)N[C@@H]1CN(Cc2ccc(C)s2)CC[C@@H]1c1n[nH]c(C)n1	i
C[C@@H]1CCN(C(=O)[C@H](CCCN=C(N)N)NS(=O)(=O)c2cccc3c2NC[C@H](C)C3)[C@@H](C(=O)O)C1	4%
COC(=O)c1ccc(CNC(=O)CC2c3cccnc3C(=O)N2c2ccccc2)cc1 (stereo not drawn)	0%[10 µM]
Cc1ccc(N2CC(NC(=O)c3ccccc3C(F)(F)F)CC2=O)cc1C (stereo not drawn)	?
OCCOCCN1CCN(C2=Nc3ccccc3Sc3ccccc32)CC1	1%
CNC1CCC(N(Cc2ccc(OC)c(-c3ccc(C#N)cc3)c2)C(=O)c2sc3ccccc3c2Cl)CC1 (stereo not drawn)	i
COc1ccccc1-c1noc(-c2ccc(NCc3cccnc3)c([N+](=O)[O-])c2)n1	-6%
O=S(=O)(NCC(c1ccco1)N1CCN(c2ccccc2)CC1)c1cc(F)ccc1F (stereo not drawn)	-5%
CC1=Nc2cc(C(=O)N3CCC(C)CC3)ccc2Sc2ccc(Cl)cc21	-9%
Cc1cc2c(cc3c(SCc4cccc(F)c4)nnc(C)n32)o1	-10%
O=c1[nH]cc(F)c(=O)[nH]1	?
COc1ccc(Nc2cc(C(=O)NCCCN(C)Cc3ccccc3)c3ccccc3n2)c(OC)c1	20%
COc1cccc(CNC(=O)Cn2c(=O)ccc3cc(S(=O)(=O)N4CCCC4)ccc32)c1	-23%
Cc1ccc(C2(C(=O)N3C[C@@H](CN4CCCCC4)[C@@H](CO)C3)CC2)cc1	i
Cc1ccc2c(=O)cc(C(=O)N(Cc3ccccc3Cl)C3CCS(=O)(=O)C3)oc2c1 (stereo not drawn)	-22%
C=C(C(=O)O)C1CC2=C(C)CCCC2(C)C[C@@H]1O (stereo partly drawn)	?
Cc1cccc(OCCc2noc(C3CCCN3)n2)c1 (stereo not drawn)	i
COC(=O)c1sc2ncccc2c1-n1c(C)ccc1C	-19%
O=C(NCCc1ccc(Cl)cc1)C1CN(C2CCCC2)C(=O)N1 (stereo not drawn)	1%[39.2 µM]
COc1cccc2c1C(=O)c1c(O)c3c(c(O)c1C2=O)C[C@@](O)(C(=O)CO)C[C@@H]3O[C@H]1C[C@H](N)[C@H](O)[C@H](C)O1	223%[activator]

14 neighbouring entries from above:
SMILES	nsP2pro primary
COc1ccccc1-c1noc(-c2ccc(NCc3cccnc3)c([N+](=O)[O-])c2)n1	-6%
O=S(=O)(NCC(c1ccco1)N1CCN(c2ccccc2)CC1)c1cc(F)ccc1F (stereo not drawn)	-5%
CC1=Nc2cc(C(=O)N3CCC(C)CC3)ccc2Sc2ccc(Cl)cc21	-9%
Cc1cc2c(cc3c(SCc4cccc(F)c4)nnc(C)n32)o1	-10%
O=c1[nH]cc(F)c(=O)[nH]1	?
COc1ccc(Nc2cc(C(=O)NCCCN(C)Cc3ccccc3)c3ccccc3n2)c(OC)c1	20%
COc1cccc(CNC(=O)Cn2c(=O)ccc3cc(S(=O)(=O)N4CCCC4)ccc32)c1	-23%
Cc1ccc(C2(C(=O)N3C[C@@H](CN4CCCCC4)[C@@H](CO)C3)CC2)cc1	i
Cc1ccc2c(=O)cc(C(=O)N(Cc3ccccc3Cl)C3CCS(=O)(=O)C3)oc2c1 (stereo not drawn)	-22%
C=C(C(=O)O)C1CC2=C(C)CCCC2(C)C[C@@H]1O (stereo partly drawn)	?
Cc1cccc(OCCc2noc(C3CCCN3)n2)c1 (stereo not drawn)	i
COC(=O)c1sc2ncccc2c1-n1c(C)ccc1C	-19%
O=C(NCCc1ccc(Cl)cc1)C1CN(C2CCCC2)C(=O)N1 (stereo not drawn)	1%[39.2 µM]
COc1cccc2c1C(=O)c1c(O)c3c(c(O)c1C2=O)C[C@@](O)(C(=O)CO)C[C@@H]3O[C@H]1C[C@H](N)[C@H](O)[C@H](C)O1	223%[activator]
